# Screening data deposited in PubChem BioAssay by Broad Institute.
# Beta cell apopt – beta cell apoptosis inhibition | INS-1E cytokine-induced death, ATP luminescence, 48 h; percent of positive-control rescue, neutral wells zero | protection from apoptosis, % (test concentration not listed) | 0.8% of 300,000 active | AID 435005;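 active means all replicates at 75% or more, or half of them and the mean; inconclusive means half reach 75% but not the mean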;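 further: 0% = cytokine-treated negative control wells and 100% = positive control rescue; higher means more ATP so stronger rescue from cytokine killing; wells of about 40 µL received 100 nL stock; the first replicate is given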
# ALR H2O2 inh – inhibitors of human sulfhydryl oxidase ALR; P55789; AID 485317; inhibition, % (test concentration not listed); 3.8% of 290,000 active; purified ALR, DTT oxidation, H2O2 HRP-luminol luminescence;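 active means mean and each replicate at 75% or more; inconclusive means only one of the two met; inactive means neither met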;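 further: stock transfer was 7.5 nL into about 7.5 µL; 0% = neutral wells and 100% = wells with inactivated enzyme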
# Target sequence (P55789 whole entry, looked up): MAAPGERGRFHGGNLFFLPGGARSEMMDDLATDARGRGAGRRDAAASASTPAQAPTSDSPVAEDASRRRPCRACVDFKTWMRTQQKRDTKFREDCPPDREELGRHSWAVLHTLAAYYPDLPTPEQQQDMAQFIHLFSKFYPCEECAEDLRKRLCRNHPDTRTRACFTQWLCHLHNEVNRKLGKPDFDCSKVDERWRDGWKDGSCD
# RanGTP-Imp inh – disruptors of Ran-importin-beta complex formation – biochemical, FRET, CFP-Ran, YFP-importin-beta, homogeneous, primary screen; inhibition, % (test concentration not listed); cell-free CFP-Ran/YFP-importin-beta FRET ratio; 1.1% of 300,000 active; AID 2216;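 active means most replicates above 15%; inconclusive means exactly half above 15%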;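 further: 0% = DMSO wells and 100% = Ran loaded with GDP instead of GTP; wells of about 40 µL received 100 nL stock; the first replicate is given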
# T cruzi inh – T. cruzi replication inhibition; T. cruzi beta-gal in NIH3T3, luminescence, 90 h; inhibition, % (test concentration not listed); 1.4% of 300,000 active;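 active means mean inhibition across valid replicates above about 55%, limit read from the data; inconclusive means mean below that limit but half or more replicates reach it; inactive means mean below it, under half of replicates reach it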;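 further: signal also drops with host cell toxicity which is not excluded here; 0% = plate median of DMSO wells and 100% = zero luminescence signal; higher percent means less beta-gal luminescence so fewer parasites; stock transfer was 50 nL into about 50 µL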
# Calb FLC – affects C. albicans growth with fluconazole | 0.57% of 300,000 active | C. albicans CaCi-2 (fluconazole-resistant clinical isolate) + fluconazole, Alamar Blue growth, 48 h | AID 1979 | growth inhibition, % (no concentration beside the values);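 active means most replicates above 75%; inconclusive means exactly half above 75%; inactive means most below 75%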;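 further: all wells also contain fluconazole at 8 µg/ml as a sub-toxic cotreatment; 0% = median of DMSO wells and 100% = median of geldanamycin control wells; wells of about 8 µL received 7.5 nL stock; the first replicate is given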
# FGF22 binding – FGF22 (human) thermal shift binding | Q9HCT0 | recombinant FGF22 thermal shift, SYPRO orange fluorescence; percent of sucrose octasulfate shift, DMSO zero | calls only at 9.99 µM | 1.5% of 340,000 active | AID 651658;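 active means melting point raised past a set limit in the mean and every replicate; inconclusive means no clear call; three in four hits are not shown here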
# Target sequence (Q9HCT0 whole entry, looked up): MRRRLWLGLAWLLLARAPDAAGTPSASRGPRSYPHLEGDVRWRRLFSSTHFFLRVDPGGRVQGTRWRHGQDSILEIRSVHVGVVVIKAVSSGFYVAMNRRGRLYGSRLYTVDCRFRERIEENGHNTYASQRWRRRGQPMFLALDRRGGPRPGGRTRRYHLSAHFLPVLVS
# rRNA inh HTS – inhibitors of bacterial rRNA selective over humanized ribosomes. E. coli WT GFP vs humanized-ribosome RFP mutants, fluorescence, 24 h; active compounds read low; DMSO median 0, no signal -100. GFP signal change (wild-type ribosome), % (test concentration not listed). 1.6% of 350,000 active. AID 720706;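 active means significant combined selectivity score with lowered wild-type GFP, culture density cut under 30%, mutant RFP and density less affected; inactive means any of these conditions unmet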; further: one replicate is shown; some compounds called inactive have numbers as strong as hits
# MLL AF4-AF9 inh – MLL-AF4/AF9 protein interaction inhibition | inhibition, % at 10 µM | AlphaScreen, biotin-AF4 peptide binding to FLAG-AF9 | AID 651704 | P42568 | 0.47% of 350,000 active;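 active means every replicate reaching a set inhibition limit, whatever the replicate mean, cut at about 25% in these data; inconclusive means mean inhibition reaches that limit but some replicates miss it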;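 further: 0% = plate neutral control median and 100% = total signal loss; the record names both 10 and 1 µM as test concentration; the first replicate is given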
# Target sequence (P42568 whole entry, looked up): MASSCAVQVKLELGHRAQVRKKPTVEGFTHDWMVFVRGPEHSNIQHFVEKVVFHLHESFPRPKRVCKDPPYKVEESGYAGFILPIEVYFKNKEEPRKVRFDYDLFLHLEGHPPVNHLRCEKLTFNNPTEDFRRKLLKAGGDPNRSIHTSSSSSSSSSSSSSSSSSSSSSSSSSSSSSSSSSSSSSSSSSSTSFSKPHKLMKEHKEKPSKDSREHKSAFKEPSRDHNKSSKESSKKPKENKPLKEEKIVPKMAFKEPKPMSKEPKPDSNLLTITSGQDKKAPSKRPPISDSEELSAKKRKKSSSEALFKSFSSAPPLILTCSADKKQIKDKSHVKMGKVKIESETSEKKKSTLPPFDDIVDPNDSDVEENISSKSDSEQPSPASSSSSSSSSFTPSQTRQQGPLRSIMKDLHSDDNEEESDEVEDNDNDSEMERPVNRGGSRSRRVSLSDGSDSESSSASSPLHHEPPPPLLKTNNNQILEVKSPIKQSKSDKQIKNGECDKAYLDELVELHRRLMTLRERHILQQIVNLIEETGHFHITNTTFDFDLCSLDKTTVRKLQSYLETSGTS
# rRNA inh HTS OD600 – recorded beside rRNA inh HTS, whose call it bears; OD600 change, %; measured here: OD600 growth;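 optical density of the mix in the first replicate; 0 = DMSO median and -100 = no signal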
# rRNA inh HTS RFP – also measured in rRNA inh HTS; calls as there; RFP signal change, %; measured here: RFP humanized mutant strains;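 first replicate; 0 = DMSO median and -100 = no signal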
# * marks the source's active call; other numbers are inactive results; i = inactive; ? = inconclusive; · = not tested or not shown; + = active, no number. These rows are one share of the data. The share of hits here may be higher or lower than overall.
SMILES,Beta cell apopt,ALR H2O2 inh,RanGTP-Imp inh,T cruzi inh,Calb FLC,FGF22 binding,rRNA inh HTS,rRNA inh HTS OD600,rRNA inh HTS RFP,MLL AF4-AF9 inh
CCOC(=O)CN(c1ccccc1C)S(=O)(=O)c1ccc(Cl)cc1,4,5,1.2,7,0,i,0,3,1.1,-4.8
Cc1ccc(S(=O)(=O)N/N=C/c2cc(Br)ccc2O)cc1,7,43,-3.4,-15,58,·,-31,-43,-8.4,30*
CCCCC1(CC(=O)OC)C(=O)N(c2ccccc2)N(c2ccccc2)C1=O,-10,-2,4.4,-14,5,·,·,·,·,·
Cc1c(C(=O)C(=O)NCCC2=CCCCC2)c2ccccc2n1C,0,·,-3.4,4,-3,i,-22,-24,-9.0,-0.1
C=CCN1CCN(C(=O)c2c(-c3ccccc3)noc2C)CC1,1,-4,1.6,-7,-4,i,18,13,3.7,-0.1
OC(CNCC(c1ccc(Cl)cc1Cl)c1c[nH]c2ccccc12)c1ccccc1 (stereo not given),68,-46,2.6,82*,11,i,-57,-78,-26,5.6
Cc1cccc(-n2ncc3c(N(CCO)CCO)ncnc32)c1,·,-6,0.2,1,-11,i,-1,-12,-0.2,-11
CC(C)c1cc(C(=O)Nc2cc(Cl)ccc2O)no1,-9,-5,-4.6,-4,-10,·,·,·,·,·
c1cncc(-c2nnc(-c3cccnc3)nn2)c1,108*,-33,-1.6,-2,21,·,·,·,·,·
Clc1cccc(CSc2nnc(-c3c[nH]c4ccccc34)o2)c1,-6,-18,-1.2,11,-3,·,·,·,·,·
O=S(=O)(Nc1ccc(Oc2ncccn2)c(Cl)c1)c1ccc(Cl)cc1,-2,-1,3.1,5,-5,·,·,·,·,·
CCCCn1ccnc1C,-1,2,-2.7,-12,-6,i,6,7,-1.4,0.9
Cc1ccc(NC(=O)CN2C(=O)NC(C)(c3ccc(Cl)cc3)C2=O)cc1S(=O)(=O)N1CCOCC1 (stereo not given),-4,-4,3.0,-11,8,·,·,·,·,·
CCN1C(=O)CS/C1=N\S(=O)(=O)c1ccc(Cl)cc1,0,0,-2.9,7,-3,·,17,14,7.9,-1.0
CN(Cc1c(C(=O)N/N=C/c2cccc(O)c2)nnn1-c1nonc1N)c1ccccc1,-3,18,2.9,17,-5,·,·,·,·,·
O=C1CC(SCCc2nc3ccccc3[nH]2)C(=O)N1c1ccc(Cl)cc1 (stereo not given),-7,49,0.0,-4,0,·,·,·,·,·
Cc1c(/C=N/Nc2ccc(C(=O)O)cc2)c2ccccc2n1C,-5,2,2.1,-7,-3,i,8,-3,-9.4,-7.5
CSc1ncccc1C(=O)Nc1ccc(S(=O)(=O)N2CCCC2)cc1,3,-6,·,·,·,+,-8,-9,-0.6,2.2
CN(C)c1ccc(C2(c3ccc(N(C)C)cc3)OC(=O)c3cc(N)ccc32)cc1,3,-2,0.2,-4,11,i,-3,13,0.8,7.9
CC(NC(=O)N1CCN(c2ccccc2F)CC1)c1ccc(F)c(F)c1 (stereo not given),3,0,-3.2,8,13,i,-4,-5,-1.6,1.6
S=c1[nH]nc(-c2cccs2)n1Cc1ccccc1,0,·,2.1,-17,12,i,-18,-11,-0.1,-2.8
C=CCn1c(SCCOc2ccc(OC)cc2)nnc1C(CO)NC(=O)c1ccc(OC)cc1 (stereo not given),-2,-5,19*,20,-6,i,2,10,-12,3.3
Cc1cc(=O)[nH]c(N/N=C/c2ccc3c(c2)OCCO3)n1,1,18,2.5,-6,-7,i,-2,-2,-4.7,2.1
CCCCNc1c(N)n(CCCC)c(=O)[nH]c1=O,7,-3,6.5,9,6,·,·,·,·,·
O=C(Nc1cccc(N=Cc2cc(Cl)cc(Br)c2O)c1)c1ccco1,-2,-8,-6.1,-2,3,i,-6,0,3.5,8.5
# Additional results.
SMILES,Beta cell apopt,ALR H2O2 inh,RanGTP-Imp inh,T cruzi inh,Calb FLC,FGF22 binding,rRNA inh HTS,rRNA inh HTS OD600,rRNA inh HTS RFP,MLL AF4-AF9 inh
Cc1coc2cc3oc(=O)c(CC(=O)N[C@@H](CC(C)C)C(=O)O)c(C)c3cc12,1,-1,0.4,-5,19,i,9,4,5.2,-4.7
COc1ccc(C2CC(=O)C3=C(C2)NC(C)=C(C#N)C3c2ccc(N(C)C)cc2)cc1 (stereo not given),-7,-2,0.7,16,-3,·,·,·,·,·
O=C(O)c1nn(CCOc2ccc(Br)cc2)c(=O)c2ccccc12,-6,-1,0.1,-7,13,i,-1,-30,-0.9,0.0
O=C(COC(=O)c1ccccn1)Nc1cccc2ccccc12,-3,·,-2.7,-9,-13,i,4,5,1.2,2.5
O=C1NNC(=O)C2C3C=CC(C4CC34)C12 (stereo not given),-5,-18,5.2,-24,-6,i,18,6,-0.5,-22
CCCCN(C(=O)C1CCCC1)c1c(N)n(CC(C)C)c(=O)[nH]c1=O,1,-13,·,·,·,i,7,5,-0.8,-14
CCc1ccccc1NC1c2ccccc2C(=O)N1c1cccnc1 (stereo not given),7,12,?,-3,-1,·,·,·,·,·
COc1ccc(C(=O)Nc2ccc([N+](=O)[O-])cn2)cc1OC,3,·,-0.8,3,3,i,-13,-5,-10,0.8
O=C(CN(C(=O)c1csnn1)c1ccc2c(c1)OCCO2)NCc1ccc(F)cc1,9,1,2.7,4,-4,i,-1,-1,-0.9,0.0
O=C(COC(=O)CCC(NC(=O)OCc1ccccc1)C(=O)OCC(=O)Nc1ccccc1)Nc1ccccc1 (stereo not given),4,-1,-2.9,-10,-16,i,4,10,-0.3,5.6
CCN(CC)CCN(C(=O)CCS(=O)(=O)c1ccccc1)c1nc2cc(OC)c(OC)cc2s1,-27,13,1.6,31,0,i,2,3,-6.0,0.6
CCN(C[C@H]1N[C@@](Cc2ccccc2)(C(=O)OC)[C@H]2C(=O)N(C)C(=O)[C@@H]12)S(=O)(=O)c1ccc(OC)cc1,-10,2,·,·,·,i,-3,-4,1.2,-1.2
O=C(O)c1ccc(CNC(=S)Nc2ccccc2)cc1,-1,-4,-3.9,-10,-1,i,8,3,1.2,-1.7
O=C1CSC(c2cccnc2)N1c1cccc(Cl)c1 (stereo not given),0,99*,2.7,33,-2,·,6,6,-0.2,-5.1
CCOc1ccc(CNCCN2CCCC2)cc1,-2,7,-5.4,22,-32,i,-7,-6,-0.1,6.2
CC1CCC(NC(=O)CC(C)(C)Cc2nc3ccccc3c(=O)[nH]2)CC1 (stereo not given),2,2,4.8,1,17,i,-9,-3,-0.4,6.8
CC1=C(C(=O)Nc2ccc(Cl)cc2)C(c2cccs2)n2nnnc2N1 (stereo not given),·,0,?,36,-1,·,·,·,·,·
Cn1c(=O)c2c(ncn2CC(=O)N/N=C/C=C/c2ccccc2[N+](=O)[O-])n(C)c1=O,-6,-4,0.8,-9,-8,·,·,·,·,·
O=C(CSc1nnc(-c2cccs2)o1)N1CCc2ccccc21,-1,·,4.6,-10,-20,·,·,·,·,·
COc1ccc(Br)cc1/C(C)=N/NC1=NCCN1,10,12,6.6,-13,-16,·,·,·,·,·
Cc1cccc(CSc2nc3c(c(=O)[nH]2)CCCC3)c1,-7,·,-1.9,-11,1,·,·,·,·,·
O=[N+]([O-])c1ccccc1NCCOc1ccccc1,1,0,-2.1,15,0,·,·,·,·,·
Cc1ccc(-n2nc3c(c2NC(=O)/C=C\c2ccc4c(c2)OCO4)CSC3)c(C)c1,·,-7,-0.8,11,21,i,4,7,2.1,-0.9
O=C(NC(=S)Nc1ccccc1Cl)c1cnn2c(C(F)(F)F)cc(C(F)(F)F)nc12,4,1,?,-4,-8,i,4,4,-3.1,-2.4
O=C(COC(=O)c1ccc(F)cc1Cl)NC(=O)NC1CCCC1,-6,·,·,·,·,i,-13,-12,-4.4,-1.6

# Rewritten with two lines to a compound: 2 of the compounds above
# Results follow in this order: Beta cell apopt, ALR H2O2 inh, RanGTP-Imp inh, T cruzi inh, Calb FLC, FGF22 binding, rRNA inh HTS, rRNA inh HTS OD600, rRNA inh HTS RFP, MLL AF4-AF9 inh
O=C(COC(=O)c1ccccn1)Nc1cccc2ccccc12
 : -3, ·, -2.7, -9, -13, i, 4, 5, 1.2, 2.5
O=C1NNC(=O)C2C3C=CC(C4CC34)C12 (stereo not given)
 : -5, -18, 5.2, -24, -6, i, 18, 6, -0.5, -22

# Remaining list, next part.
SMILES,Beta cell apopt,ALR H2O2 inh,RanGTP-Imp inh,T cruzi inh,Calb FLC,FGF22 binding,rRNA inh HTS,rRNA inh HTS OD600,rRNA inh HTS RFP,MLL AF4-AF9 inh
O=C(CSc1ncccn1)NCC1CCCO1 (stereo not given),-3,·,3.3,-11,-18,i,7,9,0.1,-10.0
COC(=O)CC1C(=O)NCCN1C(=O)Nc1ccc(Cl)c(Cl)c1 (stereo not given),3,-4,4.9,-13,-23,i,-12,-2,-3.1,-0.6
CN(NC1OC(=O)c2ccccc21)c1ccccc1[N+](=O)[O-] (stereo not given),-3,·,0.1,-18,3,i,-18,-13,-1.5,-1.0
Cc1ccc(NC(=O)CSc2nnc(CN3CCOCC3)n2C)cc1C,-2,·,-3.3,-7,12,·,·,·,·,·
CC1CCCCN1CCNC(=O)c1cnn2ccccc12 (stereo not given),-6,-3,-1.8,-4,3,i,10,8,-2.7,-5.1
COc1ccc(CNC(=O)C2CCN(C(=O)N(C)C)CC2)c(OC)c1,-25,·,-3.6,-12,-6,i,14,8,1.7,-31
CCCCOP(=O)(OCCCC)C(Nc1ccccc1)c1ccc2c(c1)OCO2 (stereo not given),-3,17,?,10,-3,i,-8,-11,4.1,12
Cc1cccc(OCC(=O)NCc2nnc3ccc(C(F)(F)F)cn23)c1C,-4,-5,·,·,·,i,-6,-3,2.2,-10
Cc1ccc(S(=O)(=O)N2CCC(C)CC2)cc1,·,10,-0.8,11,-17,i,1,-11,-0.8,-3.9
COc1ccc(S(=O)(=O)Nc2ccccc2Cl)cc1NC(C)=O,-9,1,-0.4,0,11,i,7,16,2.9,-0.2
CCN(CC)S(=O)(=O)c1ccc(OC)c(NC(=O)C2CC(=O)N(c3ccc(C)cc3)C2)c1 (stereo not given),5,0,29*,23,4,i,-17,-13,1.9,-3.2
CCOc1ncccc1C(=O)OCC(=O)c1cccc(Br)c1,·,-2,8.5,-11,34,i,2,7,0.5,-0.3
O=C(NCc1ccccc1)c1cc2ccccc2oc1=O,-3,2,-3.2,-10,0,i,8,8,-2.1,-1.2
CC1=C(C(=O)NC2CCCc3c2cnn3-c2cccc(C)c2C)OCCO1 (stereo not given),71,22,7.2,7,-1,i,-2,1,-0.3,1.2
COc1ccccc1N1CCN(C(=O)c2ccccc2NC(=O)C2CCCCC2C(=O)O)CC1 (stereo not given),-1,-6,0.3,-7,7,i,·,·,·,-12
CC(=O)Nc1ccc(S(=O)(=O)Nc2cccc(C(=O)NC(C)(C)C)c2)cc1,-1,2,0.7,-8,-6,·,·,·,·,·
COc1ccc(N(C(C)C(=O)Nc2ccc(S(=O)(=O)N3CCOCC3)cc2)S(C)(=O)=O)cc1 (stereo not given),·,-22,-5.7,4,3,i,5,1,3.1,-20
CCN(CC)S(=O)(=O)c1ccc(N2CCN(C)CC2)c(NC(=O)COc2ccc(F)cc2Cl)c1,·,·,5.5,59*,-2,i,-3,5,0.9,2.9
